PKD1 inh: inhibitors of human PKD1 kinase, biochemical, fluorescence polarization; Serine/threonine-protein kinase D1 (Homo sapiens), Q15139; PKD1 kinase fluorescence polarization assay; inhibition, %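 (about 10 µM by stock and volumes)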; 200,000 compounds, 0.056% hits;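 active = inhibition of 50% or more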;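 note: controls were vehicle for no effect and a reference inhibitor for full effect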
GALR2 agonist: GALR2 receptor agonists, primary screen, cell-based | AID 803, 2007 | activation, %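 (tested at 5 µM)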 | GALR2-expressing cells, agonist activation read-out | Galanin receptor type 2 (Homo sapiens), O43603 | 140,000 compounds, 0.48% hits;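 active = above mean plus 3 SD of all compounds, about 5% in these data, not always enough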;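 note: 0% = vehicle buffer wells and 100% = reference agonist at full effect; tested in CHO reporter cells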
Target sequence (O43603 whole entry, looked up): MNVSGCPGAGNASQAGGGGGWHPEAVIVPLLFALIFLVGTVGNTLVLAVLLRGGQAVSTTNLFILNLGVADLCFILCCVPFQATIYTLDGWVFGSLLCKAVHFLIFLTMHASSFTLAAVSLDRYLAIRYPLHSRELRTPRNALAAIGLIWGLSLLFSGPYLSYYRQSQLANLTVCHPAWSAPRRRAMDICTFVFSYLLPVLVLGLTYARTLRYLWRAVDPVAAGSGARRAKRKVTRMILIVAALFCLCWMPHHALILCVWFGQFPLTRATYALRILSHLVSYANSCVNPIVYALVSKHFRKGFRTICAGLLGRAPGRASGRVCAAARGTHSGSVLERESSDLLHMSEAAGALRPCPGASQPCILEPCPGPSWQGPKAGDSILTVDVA
INS promoter inh: inhibitors of insulin promoter-driven GFP, primary screen, imaging, TRM-6 cells (human fetal islet line), eGFP reporter, cell count; reporter expression induced with tamoxifen; inhibition, % at 2 µM; 130,000 compounds, 0.9% hits; AID 1273, 2008;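 active = inhibition above the mean plus 3 SD, with well images judged a real hit on visual review, cut at about 60% in these data, passing the limit was not always enough; inconclusive = inhibition over the cutoff but images rejected on review; inactive = inhibition not above the cutoff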
RGS16-Gao: modulators of RGS16 binding to Galphao, primary screen, biochemical, human proteins, multiplexed bead flow cytometry; 220,000 compounds, 0.38% hits; binding response (% of control), % at 10 µM; bead-based flow cytometry RGS16-Galphao binding, fluorescence; actives lie on both sides; Regulator of G-protein signaling 16 (Homo sapiens) + Guanine nucleotide-binding protein …; AID 1441, 2008;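 active = below 25% or above 175%, edge rows of some plates excepted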;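 note: Galphao activated by GDP with aluminum fluoride before binding; 100% = wells without compound and 0% = beads without RGS; some results beyond the cut were filed as inactive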
Target sequence (O15492 whole entry, looked up): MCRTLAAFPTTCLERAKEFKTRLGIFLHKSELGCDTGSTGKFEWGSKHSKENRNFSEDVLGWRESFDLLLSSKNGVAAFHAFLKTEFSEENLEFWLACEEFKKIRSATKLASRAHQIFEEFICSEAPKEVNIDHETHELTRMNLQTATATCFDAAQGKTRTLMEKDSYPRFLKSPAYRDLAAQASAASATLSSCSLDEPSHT
Target sequence (P09471 whole entry, looked up): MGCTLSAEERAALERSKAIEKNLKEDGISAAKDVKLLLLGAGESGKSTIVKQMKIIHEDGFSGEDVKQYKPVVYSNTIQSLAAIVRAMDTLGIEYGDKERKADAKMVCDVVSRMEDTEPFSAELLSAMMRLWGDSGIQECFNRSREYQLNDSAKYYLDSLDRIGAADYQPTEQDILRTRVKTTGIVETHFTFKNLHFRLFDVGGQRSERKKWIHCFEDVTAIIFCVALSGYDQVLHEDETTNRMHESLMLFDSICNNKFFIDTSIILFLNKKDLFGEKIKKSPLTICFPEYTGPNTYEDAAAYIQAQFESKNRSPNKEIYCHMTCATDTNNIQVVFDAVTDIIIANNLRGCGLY
HSV replic up: enhancers of HSV replication in host cells, fold increase, host cell viability. AID 1956, 2009. 220,000 compounds, 0.005% hits. HSV replication augmentation in cells. maximum fold increase;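 active = peak rise of 1.5-fold or more in the series; inconclusive = self-fluorescent or not available for retest; tested in PC3 cells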;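 note: first round at 10 µM; read as green reporter fluorescence; hits show the peak of a series up to 25 µM; 1 = signal of infected wells without compound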
INS promoter inh cell count: second read-out of INS promoter inh, no call of its own (marks repeat the call); normalized cell count, %; measured here: cell count, toxicity; reference of the scale not given here;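 cells exposed to compound for 48 h; stained nuclei by imaging scaled within each plate; lower means fewer cells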
HSV replic up primary fold: also measured in HSV replic up; calls as there; fold increase; compound at 10 µM; measured here: primary screen fold increase 10 uM; tested in PC3 cells;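 GFP signal in the first replicate; 1 = infected wells without compound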
Starred values were filed as active, the others as inactive; i = inactive; ? = inconclusive; . = no result given.

SMILES | PKD1 inh | GALR2 agonist | INS promoter inh | INS promoter inh cell count | RGS16-Gao | HSV replic up | HSV replic up primary fold
CCOc1ccccc1OCCCC(=O)Nc1ccc(OC)nc1 | -9.9 | -0.8 | 12.1 | 98.2 | -46.0 | i | 0.9
CC(=O)c1ccc(N2CCN(C(=O)c3ccc(NC(=O)C4CCCO4)cc3)CC2)cc1 (configuration not stated) | -4.9 | -1.4 | . | . | 107.6 | i | 0.95
COc1ccccc1NC(=O)c1cc2ccccc2o/c1=N\O | . | . | . | . | 88.8 | i | 1.12
CCCCCn1c(=O)[nH]c2cc(C(=O)NCCN3CCOCC3)ccc2c1=O | -4.1 | -0.9 | 65.7 | 63.7 | . | . | .
c1ccc(COCCN2CCN(CCOCc3ccccc3)CC2)cc1 | -8.3 | 1.0 | -43.3 | 93.9 | 108.9 | i | 1.17
N=C1C(=O)OCC1c1cc(Cl)ccc1NC(=O)Nc1ccccc1 (configuration not stated) | -1.1 | -2.8 | -87.5 | 153.5 | 49.7 | i | 0.91
OCCNC1=NCCN1 | 1.1 | -3.7 | . | . | 105.0 | i | 0.96
COc1cccc(NC(=O)N2CCC(C(N)=O)(N3CCCCC3)CC2)c1 | -10.9 | -2.8 | 0.0 | 140.9 | 101.2 | i | 1.02
COc1ccc(NS(=O)(=O)c2cc(NC(=O)/C=C/c3cc(OC)c(OC)c(OC)c3)ccc2N2CCCCC2)cc1 | -2.9 | -2.4 | 5.6 | 102.8 | 82.3 | i | 0.94
CC[C@H](C)C(=O)O[C@H]1C[C@@H](C)C=C2C=C[C@H](C)[C@H](CC[C@@H]3C[C@@H](O)CC(=O)O3)[C@H]21 | -5.7 | -1.4 | -21.7 | 66.1 | . | i | 0.8
Nc1cc(N)nc(SCC(=O)N2CCN(C(=O)c3ccco3)CC2)n1 | 0.6 | 0.0 | -1.8 | 95.2 | 92.8 | i | 0.99
O=C(NNC(=O)c1ccc2ccccc2c1O)c1ccccc1Cl | -10.6 | -2.7 | 50.0 | 104.5 | 102.7 | i | 0.98
CCCn1c(NCc2ccc(N(C)C)cc2)nc2ccccc21 | -9.2 | -1.7 | . | . | 100.2 | i | 1.06
CC(C)N(Cc1ccccc1)C(=O)c1ccc2nsnc2c1 | . | . | . | . | 95.9 | i | 1.1
CC[C@H](C)[C@@H](C(=O)N1CCNCC1)n1cc([C@@H](N)Cc2ccc(O)cc2)nn1 | -6.9 | . | . | . | 112.2 | i | 0.87
COCCNC(=S)N(Cc1cccs1)Cc1cc2cccc(C)c2[nH]c1=O | 2.1 | . | . | . | 112.1 | i | 0.94
Cc1cc(C)c(OCC(=O)Nc2cccc(O)c2)cc1C | -0.5 | -0.3 | -13.9 | 133.9 | 97.2 | i | 0.87
COc1cc(NC(=O)c2ccc3c(c2)OCO3)c2ncccc2c1 | 0.5 | -1.7 | -411.8 | 78.5 | 94.9 | i | 1.01
C=CCN=Cc1c(C)[nH]n(-c2ccccc2)c1=O | -0.9 | . | -57.1 | 97.4 | 100.9 | i | 0.95
O=C(OC(c1ccccc1)c1nccc2ccccc12)c1cccc([N+](=O)[O-])c1 (configuration not stated) | 13.7 | -0.6 | . | . | 96.2 | i | 1.1
Cc1cc(=O)[nH]c(N/N=C/C2=C(N3CCOCC3)C(=C\c3ccc(Cl)cc3)/CC2)n1 | -1.4 | 1.7 | 3.2 | 101.3 | 92.8 | i | 1.08
COC(=O)c1cc2n3ccccc3c(C)c(-c3ccccc3)c-2c1C(=O)OC | -3.7 | -0.5 | 18.9 | 58.7 | 102.0 | ? | .
CC1=C(C#N)C(c2cccnc2)C2=C(CC(C)(C)CC2=O)N1 (configuration not stated) | -2.1 | -0.8 | . | . | 102.0 | i | 0.99
NC(=O)c1sc2nccc(Nc3ccccc3)c2c1N | 11.9 | -1.0 | -26.3 | 143.9 | 97.8 | i | 0.7
O=P(O)(CCc1ccccc1)C(O)c1ccccc1 (configuration not stated) | -1.3 | -0.7 | -20.0 | 97.0 | 106.9 | i | 0.89
SMILES | PKD1 inh | GALR2 agonist | INS promoter inh | INS promoter inh cell count | RGS16-Gao | HSV replic up | HSV replic up primary fold
CNc1nc(SC)nc(N(C)C#N)n1 | 0.8 | . | . | . | 96.2 | i | 0.95
CCS(=O)(=O)Nc1ccc(-c2ccc(NS(=O)(=O)CC)c(OC)c2)cc1OC | -8.4 | 2.0 | 12.8 | 114.4 | 98.8 | i | 0.97
COc1ccc(Cc2noc(CN(C)CCc3ccccc3)n2)cc1OC | . | . | . | . | 99.3 | i | 0.99
CCCCn1c(CNC(=O)CCC)nc2ccccc21 | -5.3 | -2.6 | . | . | 108.8 | i | 0.9
O=C(O)CSCCC(=O)Nc1ccc(F)cc1 | -6.0 | -2.8 | . | . | 102.2 | i | 0.9
CC(C)OC(=O)CSc1nnc(-c2ccc(Cl)cc2)n1N | -5.7 | -1.2 | 16.1 | 80.7 | 34.0 | i | 0.64
O=C(NC1CCCC1)C(=O)N(Cc1cccnc1)C(C(=O)NCc1ccco1)c1ccccc1F (configuration not stated) | -5.9 | . | . | . | 96.7 | i | 0.88
COc1ccc(-c2csc3ncn(-c4ccccc4)c(=O)c23)cc1OC | 10.1 | . | . | . | 134.9 | i | 0.89
CCCN1/C(=C2/SC(=S)N(CC)C2=O)C=Cc2ccccc21 | 2.8 | -1.3 | -242.9 | 79.5 | 99.2 | i | 1.01
CCOC(=O)Nc1nc(-c2ccccc2)c(C(=O)c2ccc(Cl)cc2)s1 | 0.4 | -0.8 | -82.9 | 17.5 | 104.0 | i | 0.94
Cc1onc(-c2ccccc2)c1C(=O)NCc1cccs1 | 4.7 | -1.2 | 20.0 | 76.6 | 98.5 | i | 0.85
COC(=O)CC1SC(=O)NC1=Nc1ccc(C)cc1 (configuration not stated) | -16.4 | -1.5 | -3.1 | 111.2 | 106.0 | i | 0.83
C=CCC(C=C)S(=O)(=O)c1ccc(C)cc1 (configuration not stated) | -4.1 | -0.1 | 3.3 | 98.5 | 100.5 | i | 0.96
Cc1ccc(-c2nnc(N3CCCCC3)c3ccccc23)cc1 | . | . | . | . | 102.8 | i | 0.92
Cc1ccc(NC(=O)c2ccc(NCc3ccco3)c([N+](=O)[O-])c2)cc1Cl | -6.4 | -1.7 | . | . | 100.9 | i | 1.13
CC1=Nc2ccccc2NC(=O)C1Sc1nnc(C)s1 (configuration not stated) | 1.5 | -1.3 | 18.8 | 79.7 | 101.8 | i | 0.91
CCCN(CC(=O)Nc1cc(C)on1)S(=O)(=O)c1cccc(C(F)(F)F)c1 | -11.7 | . | . | . | 100.4 | i | 1
C=CCc1ccc(OCCCCN2CC(C)OC(C)C2)c(OC)c1 (configuration not stated) | -8.4 | -0.2 | 10.0 | 126.9 | 98.1 | i | 1.02
CC(=O)Nc1cccc(OC(=O)c2ccoc2C)c1 | 2.7 | -2.2 | 0.0 | 76.7 | 97.7 | i | 0.83
Cc1ccc(S(=O)(=O)Nc2c(C)nn(C)c2C)cc1 | -0.6 | -2.4 | 34.4 | 101.4 | -94.8* | i | 1.15
Cn1c(=O)oc2cc(S(=O)(=O)NCCC(=O)NCCc3ccccc3)ccc21 | -7.2 | -2.7 | -15.4 | 109.2 | 98.8 | i | 1.08
Cc1ccc(S(C)(=O)=NS(=O)(=O)c2cccc3nsnc23)cc1 (configuration not stated) | . | . | . | . | 104.4 | i | 1
O=[N+]([O-])c1ccc(C2CN=C(Nc3ccccc3)S2)cc1 (configuration not stated) | -4.2 | . | 66.7 | 115.0 | 103.1 | i | 1.02
CC(C)CCC(CC(C)O)C(=O)NNC(=S)Nc1ccccc1 (configuration not stated) | . | . | . | . | 103.3 | i | 0.96
O=C1CC(c2ccc(S(=O)(=O)Nc3cc(C(F)(F)F)cc(C(F)(F)F)c3)cc2)CN1 (configuration not stated) | -8.8 | -1.5 | -16.7 | 106.4 | 101.4 | i | 0.92
SMILES | PKD1 inh | GALR2 agonist | INS promoter inh | INS promoter inh cell count | RGS16-Gao | HSV replic up | HSV replic up primary fold
O=C(Nc1cccc(Cl)c1)N1CCCC1 | -0.9 | -2.7 | 34.3 | 47.1 | 98.3 | i | 0.82
COc1cc(OC)c(OC)cc1NC(=O)CC1COc2ccccc2O1 (configuration not stated) | 4.1 | -1.1 | -205.6 | 108.9 | 105.4 | i | 0.91
CC(=O)c1cc(-c2ccccc2)n(CCC(=O)NC2CCCCCCC2)c1C | -16.4 | 0.7 | -14.3 | 84.3 | 103.5 | i | 0.95
CCCOc1ccc(C2=NNC(=O)CC2)cc1 | -1.3 | -0.8 | -12.5 | 50.1 | 132.9 | i | 1.01
CC(C)(C)c1ccc(-c2cn(-c3ccc(Br)cc3)c3[n+]2CCCS3)cc1 | 5.3 | . | -37.5 | 97.3 | 105.9 | i | 0.7
CN(C)c1nc(OCCNC(=O)Nc2ccc(Cl)cc2)nc(N(C)C)n1 | -10.3 | . | . | . | 99.9 | i | 1.03
CS(=O)(=O)NNC(=O)c1sccc1OCc1ncc(C(F)(F)F)cc1Cl | . | . | . | . | 100.0 | i | 0.94
CCn1cc(/C=N\NC(=O)c2csc3ccccc23)c(C)n1 | -6.8 | -2.1 | 42.4 | 119.6 | 95.3 | . | .
CCOc1ccc(CC(=O)OCn2nnc3ccccc3c2=O)cc1 | -3.4 | . | 9.1 | 154.6 | 107.7 | i | 0.85
CN(C)CCNC(=O)COc1cccc2c1OC(C)(C)C2 | -13.7 | . | . | . | 101.3 | i | 0.99
CN(C)CCNC(=O)C(=O)NCC1OCCN1S(=O)(=O)c1ccc2c(c1)OCCO2 (configuration not stated) | . | . | . | . | 100.8 | i | 0.6
COc1ccc2[nH]c3c4c(ccc3c2c1)C(=O)C=CC4=O | . | . | . | . | 110.5 | i | 1.01
CSc1nc(SCC(=O)NCc2ccco2)c2c3c(sc2n1)COC(C)(C)C3 | 2.6 | 0.0 | 3.7 | 96.3 | 101.8 | i | 0.85
Clc1cccc(-c2nc(NCCN3CCOCC3)c3ccccc3n2)c1 | -7.3 | . | . | . | 94.5 | i | 0.65
O=C(c1cc(COc2c(F)cccc2F)on1)N1CCc2ccccc2C1 | 3.1 | . | . | . | 100.4 | i | 0.96
C=CCc1cccc(/C=N/NC(=O)CNc2ccccc2OC)c1O | 8.6 | . | -50.0 | 151.3 | 111.6 | . | .
Cc1cc(N=Cc2c(O)n(-c3cccc(C(F)(F)F)c3)c(=O)c3ccccc23)no1 | 0.3 | -0.6 | 0.0 | 126.2 | 103.9 | i | 0.88
c1csc(-n2nc3ccccc3n2)c1 | 8.0 | -1.3 | -9.1 | 93.4 | 126.8 | i | 1.03
COc1cc(OC)c2c(C)cc(=O)oc2c1C(CCN1CCOCC1)c1ccc(N(C)C)cc1 (configuration not stated) | . | . | . | . | 89.2 | i | 0.71
CCOC(=O)C1CCCN(S(=O)(=O)c2ccc(OC)cc2)C1 (configuration not stated) | -2.5 | -2.8 | -22.9 | 52.3 | 100.1 | i | 0.72
CCOC(=O)CSc1cc(C)c(C#N)c2nc3ccccc3n12 | -3.5 | . | . | . | 104.4 | i | 0.95

Molecules listed so far with a furan ring, fused or not:
SMILES | PKD1 inh | GALR2 agonist | INS promoter inh | INS promoter inh cell count | RGS16-Gao | HSV replic up | HSV replic up primary fold
Nc1cc(N)nc(SCC(=O)N2CCN(C(=O)c3ccco3)CC2)n1 | 0.6 | 0.0 | -1.8 | 95.2 | 92.8 | i | 0.99
O=C(NC1CCCC1)C(=O)N(Cc1cccnc1)C(C(=O)NCc1ccco1)c1ccccc1F (configuration not stated) | -5.9 | . | . | . | 96.7 | i | 0.88
Cc1ccc(NC(=O)c2ccc(NCc3ccco3)c([N+](=O)[O-])c2)cc1Cl | -6.4 | -1.7 | . | . | 100.9 | i | 1.13
CC(=O)Nc1cccc(OC(=O)c2ccoc2C)c1 | 2.7 | -2.2 | 0.0 | 76.7 | 97.7 | i | 0.83
CSc1nc(SCC(=O)NCc2ccco2)c2c3c(sc2n1)COC(C)(C)C3 | 2.6 | 0.0 | 3.7 | 96.3 | 101.8 | i | 0.85

Molecules listed so far containing a cyano group, in the order listed:
SMILES | PKD1 inh | GALR2 agonist | INS promoter inh | INS promoter inh cell count | RGS16-Gao | HSV replic up | HSV replic up primary fold
CC1=C(C#N)C(c2cccnc2)C2=C(CC(C)(C)CC2=O)N1 (configuration not stated) | -2.1 | -0.8 | . | . | 102.0 | i | 0.99
CNc1nc(SC)nc(N(C)C#N)n1 | 0.8 | . | . | . | 96.2 | i | 0.95
CCOC(=O)CSc1cc(C)c(C#N)c2nc3ccccc3n12 | -3.5 | . | . | . | 104.4 | i | 0.95
